ugtP null kill = growth inhibition of ugtP-null S. aureus, primary screen, RN4220 ugtP deletion, OD600. 330,000 tested, 0.54% active. 16 h; some inactives read as strong as hits. growth inhibition, % (test concentration not listed). AID 1259309, 2017;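 active = z-score under -3 and OD600 up to 0.15 on both plates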;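 note: plate controls were untreated wells for no effect and antibiotic for full effect; wells of about 80 µL received 100 nL stock; the first replicate is given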
PrP 5UTR inh = inhibition of PrP 5' UTR reporter expression; inhibition, % (concentration not given with the values); cell-based PrP 5' UTR mRNA reporter, plate reader; AID 488862, 2010; 340,000 tested, 0.35% active;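 active = every replicate at 50% or more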;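 note: 0 = median of the neutral control wells; tested in H4 reporter cells; numbers are from one replicate; inactives centre near -14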
Autofluor counter = compound fluorescence in toxin protease inhibitor counterscreen; 360,000 tested, 3.1% active; compound autofluorescence counterscreen, microsphere flow cytometry; active compounds read high; fluorescence intensity (no concentration beside the values); AID 624483;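 active = at least 3 SD above the mean of all compounds, about 16000 in these data; inconclusive = too few beads counted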;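 note: 100 nL of 1 mM stock went into each well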
BJeLR viability = MLPCN primary cell-based screen for lethality selective to Ras in HRASV12 cells; BJeLR (HRASV12) viability, CellTiter-Glo ATP luminescence, 48 h; reference of the scale not given here; inhibition, % (test concentration not listed); 300,000 tested, 0.17% active; AID 1554, 2009;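 active = replicate mean above 50%; inconclusive = above 50% but judged a plate artefact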;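 note: 50 nL library stock added to about 25 µL; numbers are from one replicate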
Sa RN4220 lethal = growth inhibition of S. aureus RN4220, primary screen, OD600 | 16 h | inhibition, % (no concentration beside the values) | 330,000 tested, 0.33% active | AID 1259311, 2017;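 active = z-score of -3 or lower and OD600 up to 0.18 on both plates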;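 note: plate controls were untreated cells for no effect and reference antibiotic for full effect; stock transfer was 100 nL into about 80 µL; one replicate is shown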
Mtb hypoxia rep = PubChem AID 1159583. M. tuberculosis hypoxia-regulated fluorescent reporter, fluorescence. fluorescence inhibition, % (no concentration beside the values). 300,000 tested, 0.1% active;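 active = 35 to 45% if threefold the growth effect, above 45% if 1.5-fold the growth effect; inactive = the rest, general growth blockers included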;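 note: wells of about 50 µL received 100 nL stock; 0% = vehicle wells and 100% = reference inhibitor wells; whole bacteria with a GFP reporter of the hypoxia response; strong numbers were not always called active; many hits fall short of the cut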
Mtb hypoxia rep growth = also measured in Mtb hypoxia rep; calls as there; growth inhibition, %; measured here: M. tuberculosis growth (absorbance);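 0% = vehicle and 100% = reference antibiotic; read after six days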
The depositor's hits bear a star; ? = inconclusive; nt = not tested or not shown. The order is random. About 4% of those tested had a hit in this group.

SMILES	ugtP null kill	PrP 5UTR inh	Autofluor counter	BJeLR viability	Sa RN4220 lethal	Mtb hypoxia rep	Mtb hypoxia rep growth
CCOC(=O)C1=C(N)Oc2c(oc(CO)cc2=O)C1c1c(F)cccc1Cl (configuration not stated)	6.0	-6.1	3614	2.1	2.9	6.7	2.7
CC1CCCCN1S(=O)(=O)c1ccc(S(=O)(=O)N2CCCC2)cc1 (configuration not stated)	nt	-43.5	4052	2.0	nt	nt	nt
CC(=O)c1cccc(NC(=O)COC(=O)CCNS(=O)(=O)c2ccccc2)c1	1.7	-18.8	3511	nt	-0.3	2.9	9.4
O=C(COC(=O)c1cc(S(=O)(=O)N2CCOCC2)ccc1F)NCCc1ccc(F)cc1	0.4	nt	5554	nt	0.4	-7.2	-1.3
O=C(c1cc([N+](=O)[O-])cc([N+](=O)[O-])c1)N(Cc1nnc(-c2ccccc2Cl)o1)C1CC1	-1.6	-8.5	4289	-0.4	-0.9	2.3	20.3
CC#CCN1c2ccccc2[C@]23C[C@@H](C(=O)OC)N(C(=O)NC(C)(C)C)C2=NC(C(=O)OC)=C(C(=O)OC)[C@H]13	nt	-7.8	2798	-4.2	nt	nt	nt
O=[N+]([O-])/C=C\c1ccc(N2CCOCC2)cc1	1.3	38.2	4786	2.4	3.1	4.9	-4.0
C#CCOCCOCCOCCNc1nc(N2CCN(C(=O)[C@H](CCC(=O)O)n3cc(CN)nn3)CC2)nc(N2CCN(C(=O)[C@H](CCCN=C(N)N)n3cc(C(N)[C@@H](C)CC)nn3)CC2)n1 (some centres not stated)	1.0	-15.3	3674	nt	0.1	-0.2	2.9
O=C1CN(C(=O)c2c(F)cccc2F)C(c2ccc(F)cc2)c2cc(Br)ccc2N1 (configuration not stated)	-5.3	-18.8	3987	1.4	0.7	-0.9	-1.1
CC1Oc2ccccc2C=C1C1/C(=C(/O)c2ccccc2)C(=O)C(=O)N1CCCN(C)C (configuration not stated)	nt	-12.0	2920	5.6	nt	nt	nt
CC(C)(C)c1ccc(C(=O)NNC(=O)c2ccccc2Br)cc1	2.0	-19.0	11199	-4.1	-1.0	-1.1	4.3
CCOC(=O)c1c(C)[nH]c(C(=O)NNC(=O)c2ccc(Br)cc2)c1C	0.0	-8.4	6133	nt	-1.4	1.6	-6.4
c1nc(NC2CCCCC2)c2[nH]cnc2n1	-6.6	-26.3	19676*	-7.2	2.5	3.3	6.0
Cc1ccc(S(=O)(=O)NCC2CCC(C(=O)NCc3cccs3)CC2)cc1 (configuration not stated)	1.9	-27.2	6358	7.9	4.0	11.5	0.2
COc1ccc(S(=O)(=O)NC(CCSC)C(=O)NC2CCCCC2)cc1 (configuration not stated)	2.0	-17.2	3679	0.1	1.8	10.9	3.9
CCn1c(-c2ccccc2Cl)nn(CC(=O)NCCc2ccccc2)c1=S	6.6	-3.1	2536	-0.2	-5.2	-6.4	-1.7
CCOc1cc(CNc2ncn[nH]2)ccc1OCC(=O)NC(C)(C)C	6.6	-4.3	3125	-0.1	1.0	14.2	7.1
O=C(C1CCN(S(=O)(=O)c2cccc3nsnc23)CC1)N1CC=C(c2ccccc2)CC1	7.3	-5.4	3140	-2.2	0.8	nt	nt
O=C(CCCCCN1C(=O)c2ccccc2C1=O)Oc1ccc2c3c(c(=O)oc2c1)CCC3	11.9	-2.2	11265	4.2	9.5	-5.0	-4.0
Cc1oc(C(=O)Nc2ccc(O)cc2)cc1COc1ccccc1	9.1	-10.0	3069	nt	0.4	-0.4	5.1

Molecules listed so far with fluorine (3):
SMILES	ugtP null kill	PrP 5UTR inh	Autofluor counter	BJeLR viability	Sa RN4220 lethal	Mtb hypoxia rep	Mtb hypoxia rep growth
CCOC(=O)C1=C(N)Oc2c(oc(CO)cc2=O)C1c1c(F)cccc1Cl (configuration not stated)	6.0	-6.1	3614	2.1	2.9	6.7	2.7
O=C(COC(=O)c1cc(S(=O)(=O)N2CCOCC2)ccc1F)NCCc1ccc(F)cc1	0.4	nt	5554	nt	0.4	-7.2	-1.3
O=C1CN(C(=O)c2c(F)cccc2F)C(c2ccc(F)cc2)c2cc(Br)ccc2N1 (configuration not stated)	-5.3	-18.8	3987	1.4	0.7	-0.9	-1.1

(list continues)
SMILES	ugtP null kill	PrP 5UTR inh	Autofluor counter	BJeLR viability	Sa RN4220 lethal	Mtb hypoxia rep	Mtb hypoxia rep growth
CCOc1cccc(NC(=O)C2CCCN(S(=O)(=O)c3ccc(OC)cc3)C2)c1 (configuration not stated)	-8.6	-22.8	9945	-13.7	2.2	7.7	6.8
O=C(CCC(=O)NNC(=O)COc1ccc(Br)cc1)NCc1ccccc1	5.2	-10.0	5713	-7.9	3.7	8.0	4.9
O=C(Nc1ccc2c(c1)CCC2)c1cc(S(=O)(=O)N2CCN(c3ccccc3)CC2)ccc1Cl	0.6	-12.6	4709	-5.1	5.3	3.9	16.5
Nc1nonc1-c1nc2ccccc2n1CCC(=O)O	3.6	-19.1	23562*	-3.1	2.3	0.5	6.2
CCOc1ccc(-c2nc(CS(=O)(=O)CC(=O)NCc3ccc(F)cc3)c(C)o2)cc1	13.0	-10.0	5419	9.9	19.2	-5.0	-3.7
O=C(Cn1c(=O)oc2ccccc21)NC(=O)NCc1ccccc1	-3.5	-6.8	3221	8.2	-9.8	4.4	-0.9
O=C(Nc1cccnc1)Nc1ccc2c(c1)OCO2	0.9	-41.2	9313	11.0	5.2	17.7	10.7
COc1cc(C)ccc1OCCOCCOc1ccc(C)cc1[N+](=O)[O-]	-0.2	-10.1	2601	7.9	8.2	4.2	1.7
C#CCN1C(=O)C2(C(C#N)=C(N)OC(C)=C2C(=O)OCc2ccccc2)c2ccccc21 (configuration not stated)	-3.7	-30.2	?	12.6	39.2	3.3	4.3
CCC(=O)N1c2ccc(S(=O)(=O)CCC(=O)N3CCn4c3nc3ccccc34)cc2CC1C (configuration not stated)	-0.9	-14.8	2454	8.0	5.8	20.6	13.9
CC1CN(S(=O)(=O)c2cccc(-c3csc(-c4ccccc4)n3)c2)CC(C)O1 (configuration not stated)	-12.0	-29.1	3333	-0.1	-8.7	7.4	4.0
Cc1cccc(NC(=S)N2CCN(Cc3ccc4c(c3)OCO4)CC2)c1C	0.7	-16.1	4869	14.6	2.1	nt	nt
CCOc1ccc(C2=CC(=O)CC(c3ccc(OC)cc3)C2)cc1 (configuration not stated)	16.1	nt	nt	nt	6.3	13.2	4.5
CC(C)(C)c1ccc(C(=O)N/C(=C\c2cccc([N+](=O)[O-])c2)C(=O)Nc2cccc(C(=O)O)c2)cc1	-2.4	-16.9	3330	1.0	1.3	1.5	-5.8
CCOC(=O)N1CCN(CC(O)c2ccc3c(c2)CCN3)CC1 (configuration not stated)	3.8	nt	7889	0.3	0.0	15.3	3.9
O=C(NN=Cc1ccccc1)c1ccc(CN2C(=O)c3cccc4cccc2c34)cc1	-6.3	nt	nt	nt	0.7	9.8	0.9
Cn1ncc(-c2ccno2)c1C(=O)O	0.7	3.4	4593	-6.0	6.1	11.3	-0.8
O=C(CN1C(=O)S/C(=C\C=C\c2ccccc2)C1=O)Nc1ccc(O)cc1	nt	-7.8	7481	-8.8	nt	nt	nt
Cc1ccc2nc(Cl)c(/C=N/NC(=O)c3ccccc3O)cc2c1	nt	-12.1	2473	13.1	nt	nt	nt
CS(=O)(=O)N(CC(=O)N1CCN(C(c2ccccc2)c2ccccc2)CC1)C1CCCCC1	-5.3	-22.5	10079	-0.3	3.2	12.6	6.0
COC(=O)c1c(-c2cccc(C)c2)csc1NC(=O)C1CCCO1 (configuration not stated)	12.4	-15.0	4263	0.6	-2.2	18.3	7.6
Cc1nn(Cc2ccccc2Cl)c(C)c1C(=O)Nc1nnc(C2CC2)s1	-0.6	-4.1	4072	20.7	8.2	-13.9	-11.4
COc1ccc([N+](=O)[O-])cc1NC(=O)C(C)OC(=O)CC1CCCC1 (configuration not stated)	2.2	-13.2	3556	nt	1.7	5.5	5.3
CC(=O)Oc1ccc(OC(C)=O)c(S(=O)(=O)c2ccc(C)c(C)c2)c1	5.3	-27.9	4005	-5.1	2.1	15.1	-0.3
C[C@]12CC[C@@H]3c4ccc(OC(=O)c5ccccc5)cc4CC[C@H]3[C@@H]1CC[C@@H]2O	nt	-25.8	4319	11.8	nt	nt	nt
COc1ccc(CC(=O)N[C@@H](CCSC)c2nc3ccccc3[nH]2)cc1	1.9	-20.1	4017	-1.3	-0.1	1.9	-10.3
O=C(CN1C(=O)NC2(CCCCC2)C1=O)NCCc1ccccc1	2.0	6.1	?	nt	3.7	3.7	10.9
CCC(Oc1ccccc1)C(=O)Nc1ncc([N+](=O)[O-])s1 (configuration not stated)	41.2	-22.8	4529	-10.6	21.3	5.1	8.9
CC1(C)CC(c2nc(-c3ccc([N+](=O)[O-])cc3)cs2)CCO1 (configuration not stated)	5.7	-12.0	4244	3.1	1.9	18.9	5.4
C=CCN1N=C(c2ccc(NC(=O)c3ccccc3)cc2)CSC1=O	2.1	-22.9	4480	-6.5	6.4	9.7	2.5
COc1c(C)cc(S(=O)(=O)NCc2ccco2)c(C)c1C	-0.7	-17.9	4926	-1.4	2.1	13.8	11.4
CC1CC(C)CN(C(=O)COC(=O)c2nccnc2N)C1 (configuration not stated)	-1.4	-1.6	4187	nt	-0.9	-1.6	-1.7
CC1=CC2C(C3C=CC2(C)C(=O)C3(C)O)C(C)(O)C1=O (configuration not stated)	5.2	-24.3	3365	nt	4.3	8.7	7.5
O=C(CCl)NC(Cc1c[nH]c2ccc(OCc3ccccc3)cc12)C(=O)O (configuration not stated)	20.1	-3.0	5403	0.1	4.8	8.1	-1.0
CS(=O)(=O)N(CC(=O)Nc1c(F)cccc1F)c1ccc(C23CC4CC(CC(C4)C2)C3)cc1	1.0	-26.1	9976	-17.6	-2.9	-3.5	0.5
O=C(C1=C[C@@H](c2ccccc2)C[C@@H](OCCCCO)O1)N1CCN(Cc2ccc3c(c2)OCO3)CC1	nt	-7.3	3992	5.3	nt	nt	nt
Cc1cc(C)cc(NC(=O)CSCc2cc(=O)n3ccsc3n2)c1	3.3	-62.6	5466	1.5	1.4	14.1	0.1
CCOC(=O)N1CCN(C(=O)C(=O)Nc2sc3c(c2C#N)CC(C)(C)OC3)CC1	4.5	5.8	5642	5.5	4.2	5.6	13.6
COc1cc(/C=C/C(=O)NC(C)C2CC3CCC2C3)cc(OC)c1OC (configuration not stated)	1.0	-31.3	5514	-12.7	-0.3	6.2	0.2
CCOC(=O)c1ccccc1Nc1cn(C(C)=O)c2ccccc12	22.0	-25.7	2543	5.1	-6.9	nt	nt
COC(c1ccccc1)c1nc2ccccc2[nH]c1=O (configuration not stated)	7.1	-16.8	3423	-12.0	0.8	16.0	8.0
O=C1NC(c2ccc(Br)cc2)Nc2ccccc21 (configuration not stated)	17.7	-39.9	3575	1.5	-0.4	-4.5	-10.6
C#CCOCCOCCOCCNc1nc(N2CCN(C(=O)C(C(C)CC)n3cc(C(N)CO)nn3)CC2)nc(N2CCN(C(=O)C(C(C)CC)n3cc(C(N)Cc4ccc(O)cc4)nn3)CC2)n1 (configuration not stated)	3.8	nt	nt	nt	1.1	5.5	12.1
Fc1ccc(C=NN2CCOCC2)c(F)c1	7.0	nt	nt	nt	6.5	11.5	16.4
COc1ccc(/C=C/c2ccncc2)c2ccccc12	-16.1	-7.4	6030	19.1	11.8	-8.2	0.3
Cc1ccc(OCCCC(=O)Nc2ccc3c(c2)OCO3)cc1	4.4	-11.3	9271	3.0	4.3	0.0	-3.9
CC(=O)Nc1nc(-c2ccc([N+](=O)[O-])cc2)cs1	6.6	-37.9	4220	0.6	2.7	1.0	-21.7
CN(C(=O)COC(=O)c1cc2ccccc2cc1O)C1CCCCC1	6.2	-27.0	nt	nt	8.3	4.5	-4.1
CCC(C)(C)NC(=O)CN(C(=O)c1csnn1)c1ccccc1-c1ccccc1	10.5	-23.5	4089	1.5	7.3	11.7	4.4
Cc1ccc(OCc2cc(C(=O)N(CCO)Cc3cccs3)no2)cc1C	nt	-40.0	5489	4.4	nt	nt	nt
COCCCNC(=S)N1CCN(c2nc(-c3ccc(F)cc3)cs2)CC1	13.7	-29.8	4302	10.4	-6.2	3.1	1.5
COc1ccc(C)cc1S(=O)(=O)NC1CC1	4.8	-3.8	3651	9.7	2.1	8.8	12.8
COC(=O)CN1C(=O)C(C)=C(c2ccc(C)cc2)S1(=O)=O	3.3	nt	9607	-6.2	3.5	4.1	1.4
COc1cc(C2SCCS2)cc(Br)c1Oc1ncccc1[N+](=O)[O-]	55.8	-23.6	5446	-3.3	2.3	15.0	8.5
Nc1csnc1C(=O)O	-8.2	-24.7	9881	2.3	5.1	3.9	3.4
